NPYLR7 agonist: agonists of mosquito NPYLR7 receptor, primary screen, cell-based, Aedes aegypti, calcium fluorescence, mosquito biting behavior; Aedes aegypti neuropeptide Y-like receptor 7 (NPYLR7); HEK293T NPYLR7/Galpha15, GCaMP6s calcium fluorescence; activation, % at 10 µM; actives 0.15% (n = 270,000); AID 1259423, 2018; in the data active means activation above about 40%;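 further: 0% = vehicle and 100% = reference agonist at the receptor; some compounds past the cut are filed as inactive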
NPYLR7 agonist max-min: further read-out of NPYLR7 agonist, marked with its call; activation, %; measured here: Max-Min RFU normalised activation; some inactives read as strong as hits;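 span of the calcium signal over five minutes; 0% = vehicle and 100% = native peptide agonist; compound fluorescence can raise it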
* marks the source's active call; other numbers are inactive results. An excerpt; rates above refer to the full screens.

SMILES	NPYLR7 agonist	NPYLR7 agonist max-min
O=S(=O)(NCc1ccccc1CN1CCOCC1)c1ccccc1Br	13	19
CCOC(=O)C1(C)CCN1C(=O)c1ccco1 (stereo not given)	7	5
COc1cc(CCNC(=O)CSc2nnc(C(F)(F)F)n2C)ccc1OC(F)F	-1	0
COc1ccc(-c2ccc(C)c(NC(=O)C3CCCC3)c2)nn1	2	4
CCc1c(C)sc2ncnc(N3CCCN(C(=O)COC)CC3)c12	-4	-6
Brc1cccc(CSc2nc3ccccc3[nH]2)c1	-8	-12
COc1cc(/C=N\NC(=O)CSc2nnc(-c3ccccc3)n2-c2ccccc2)cc(OC)c1OC(C)=O	-5	4
CCc1ccc(C(=O)CCC(=O)NCC(=O)NC(C)(C)C)cc1	7	2
CC(C)(C)CC(=O)N1CC(C(=O)N2CCCC2)C(c2ccccc2)C1 (stereo not given)	27	20
COc1cccc(C(=O)N(CCN2CCOCC2)Cc2nccn2Cc2ccc(C(F)(F)F)cc2)c1	-1	0
CC(C)CN(C)c1nc(N)c(C(=O)N=C(N)N)nc1Cl	7	-12
COc1cccc(CN2CC(O)CN(C(=O)Cc3ccccc3)CC2=O)c1OC (stereo not given)	7	18
COc1cccc(NC(=O)c2cccnc2Nc2cc(Cl)cc(Cl)c2)c1	-4	-8
CC1(C)S[C@@H]2[C@H](NC(=O)C(N)c3ccc(O)cc3)C(=O)N2[C@H]1C(=O)O (stereo not given in full)	-13	-15
CC(C)(C)OC(=O)NCCCCCC(=O)NCCc1nc2ccccc2[nH]1	6	4
CCOC(=O)c1cn[nH]c1S(=O)(=O)Nc1cc(C)cc(C)c1	-1	-6
C#CCNC(=O)NCc1[nH]ncc1Br	1	11
Cn1cnnc1C1CCN(CN2C(=O)C(=O)c3cc4c(cc32)OCCO4)CC1	-1	-1
Cc1ccc(-n2cc(C(=O)N3CCC(NC(=O)Cc4cccs4)CC3)nn2)cc1	-8	-10
CC(=O)c1ccc(-n2c(-c3ccco3)nc3nc4ccccc4nc32)cc1	-1	-11
CCn1nc(C(C)C)cc1C(=O)N1CCn2c(C(N)=O)cnc2C1	13	10
Cc1cc(Br)cc(C)c1NC(=O)c1cccn(OCc2ccccc2)c1=O	2	9
COc1cccc(-c2ncc(CN3CCC(O)(CO)CC3)s2)c1	0	4
C=CCn1c(C)c(C)n2c3c(=O)n(Cc4ccccc4)c(=O)n(C)c3nc12	-1	14

Arranged by formula weight (lowest first): some entries from above
SMILES	NPYLR7 agonist	NPYLR7 agonist max-min
CCOC(=O)C1(C)CCN1C(=O)c1ccco1 (stereo not given)	7	5
C#CCNC(=O)NCc1[nH]ncc1Br	1	11
CC(C)CN(C)c1nc(N)c(C(=O)N=C(N)N)nc1Cl	7	-12
COc1ccc(-c2ccc(C)c(NC(=O)C3CCCC3)c2)nn1	2	4
CCc1ccc(C(=O)CCC(=O)NCC(=O)NC(C)(C)C)cc1	7	2
Brc1cccc(CSc2nc3ccccc3[nH]2)c1	-8	-12
CCOC(=O)c1cn[nH]c1S(=O)(=O)Nc1cc(C)cc(C)c1	-1	-6
CCn1nc(C(C)C)cc1C(=O)N1CCn2c(C(N)=O)cnc2C1	13	10
COc1cccc(-c2ncc(CN3CCC(O)(CO)CC3)s2)c1	0	4
CC(C)(C)CC(=O)N1CC(C(=O)N2CCCC2)C(c2ccccc2)C1 (stereo not given)	27	20
CCc1c(C)sc2ncnc(N3CCCN(C(=O)COC)CC3)c12	-4	-6
CC(=O)c1ccc(-n2c(-c3ccco3)nc3nc4ccccc4nc32)cc1	-1	-11
C=CCn1c(C)c(C)n2c3c(=O)n(Cc4ccccc4)c(=O)n(C)c3nc12	-1	14
CC1(C)S[C@@H]2[C@H](NC(=O)C(N)c3ccc(O)cc3)C(=O)N2[C@H]1C(=O)O (stereo not given in full)	-13	-15
CC(C)(C)OC(=O)NCCCCCC(=O)NCCc1nc2ccccc2[nH]1	6	4
Cn1cnnc1C1CCN(CN2C(=O)C(=O)c3cc4c(cc32)OCCO4)CC1	-1	-1
COc1cccc(NC(=O)c2cccnc2Nc2cc(Cl)cc(Cl)c2)c1	-4	-8
COc1cccc(CN2CC(O)CN(C(=O)Cc3ccccc3)CC2=O)c1OC (stereo not given)	7	18
Cc1ccc(-n2cc(C(=O)N3CCC(NC(=O)Cc4cccs4)CC3)nn2)cc1	-8	-10
O=S(=O)(NCc1ccccc1CN1CCOCC1)c1ccccc1Br	13	19
Cc1cc(Br)cc(C)c1NC(=O)c1cccn(OCc2ccccc2)c1=O	2	9
COc1cc(CCNC(=O)CSc2nnc(C(F)(F)F)n2C)ccc1OC(F)F	-1	0
COc1cc(/C=N\NC(=O)CSc2nnc(-c3ccccc3)n2-c2ccccc2)cc(OC)c1OC(C)=O	-5	4

Remaining list, next part.
SMILES	NPYLR7 agonist	NPYLR7 agonist max-min
Fc1ccc(Oc2cncc(OCc3ccccc3)n2)cc1	12	8
Cc1nn(C)c(Cl)c1C1CCCN1CC(=O)Nc1nccs1 (stereo not given)	4	1
CCc1nc2ccc(C(=O)Nc3ccc4c(c3)OCC(=O)N4)cn2c1N(CCN(C)C)CC1CC1	-4	-8
Cc1ccc(N2CCn3c2nc2c3c(=O)n(Cc3cc(C)ccc3C)c(=O)n2C)cc1	3	19
CC1=NOC(C)(C(=O)NCc2cccnc2N(C)Cc2ccccc2)C1 (stereo not given)	3	1
O=C(c1cccnc1SC/C=C/c1ccccc1)N1CC[C@H](O)C1	9	0
[O-][n+]1c2ccc3nonc3c2nn1-c1ccc(F)cc1	3	0
COc1ccc(N2CCN(C(=O)COc3ccc([N+](=O)[O-])cc3)CC2)cc1	7	0
O=C1CCCN1CCC1CCCCN1C(=O)NCCc1ccc(F)cc1 (stereo not given)	5	2
COc1cc(C(=O)NNC(=O)COc2cc(C)c(Cl)c(C)c2)cc(OC)c1OC	-1	-3
NC(=O)C1CCN(c2ccc3cccc(OCc4ccccc4F)c3n2)CC1	3	2
O=C1OC(c2ccccc2)=C/C1=C1\c2ccccc2-c2ncccc21	-11	-21

A different layout for two compounds above:
Every second line gives: NPYLR7 agonist	NPYLR7 agonist max-min
CC1=NOC(C)(C(=O)NCc2cccnc2N(C)Cc2ccccc2)C1 (stereo not given)
    3	1
O=C(c1cccnc1SC/C=C/c1ccccc1)N1CC[C@H](O)C1
    9	0

Additional compounds follow.
SMILES	NPYLR7 agonist	NPYLR7 agonist max-min
O=C(NC1CC1)C1COC2(CCN(C(=O)c3cccc(Cl)c3)CC2)N1C(=O)c1ccc(F)cc1 (stereo not given)	-1	8
CN1C(=CC=NNC(N)=S)C(C)(C)c2ccccc21	3	1
CCc1noc(C)c1C(=O)Nc1ccc2nc(N3CCOCC3)sc2c1	8	1
Cc1ccc(-c2nc3ccc(Br)cn3c2Nc2ccc3c(c2)OCO3)o1	-2	-3
CC(=O)Nc1ccc(CN2C(=O)C(C)ON=C2c2cccc3ccccc23)cc1 (stereo not given)	6	5
Cn1cc(OCc2ccccc2)c(=O)cc1C(=O)NCCc1ccc(S(N)(=O)=O)cc1	1	0
COc1ccc(OCC(=O)N=Nc2c(O)[nH]c3ccccc23)cc1	-3	-7
C[n+]1ccc2ccccc2c1	8	8
Cc1cnc(C(=O)OC(C)C(=O)NC(N)=O)cn1 (stereo not given)	-4	-12
NS(=O)(=O)CCCC(=O)NCC12CC3CC(CC(C3)C1)C2	9	8
CCOC(=O)N1CCN(C(=O)c2cccc(CC3CCNCC3)c2)CC1	5	3
CC(NC(=O)CCN(Cc1ccccc1)c1nc(-c2ccc(F)cc2)nc2ccccc12)c1ccccc1 (stereo not given)	-2	12
COc1ccc(/C=C2/C(=N)N3N=C(CC(C)C)SC3=NC2=O)cc1	1	0
CCN1CC(CN(C)c2nc3nonc3nc2N2CCCCCC2)CC1=O (stereo not given)	4	2
CCCCNC(=O)c1c(-c2ccccc2Cl)noc1C	5	3
CC1(C)CC2CC(C)(CN2C(=O)CCC2(Cc3ccc4ccccc4c3)CCC(=O)N2)C1 (stereo not given)	0	-2
N=c1ccn2c(n1)OC1C(O)[C@@H](CO)O[C@H]12 (stereo not given in full)	7	-6
O=C1CC(NS(=O)(=O)N2CCOCC2)CN1Cc1ccc(F)cc1 (stereo not given)	7	8
CCCCCNC(=O)c1ccc(SCc2ccccc2)nc1	-6	-11
Cc1cc(CN(C)C(=O)C2=NN(C)C(=O)CC2)no1	-4	-4
CCc1cc2c(SCC(=O)c3ccc(Br)s3)ncnc2s1	-5	-8
CC1(C)CC(=NNCCC#N)CC(=[N+]2CCCC2)C1	0	-1
O=C(NC1CC1c1ccccc1)C1CCCCN1C(=O)c1ccccc1 (stereo not given)	0	-1
Cc1ccccc1C(=O)NCCn1cc(SCC(=O)NCc2ccccc2)c2ccccc21	2	5
O=C(NCCc1nc(-c2ccccc2)cs1)C1CC(=O)N(C2CC2)C1 (stereo not given)	3	2
COc1cccc(NC(=O)C(OC(=O)C2=NNC(=O)CC2)c2ccccc2)c1 (stereo not given)	7	3
S=c1[nH]nc(-c2nccc3ccccc23)n1-c1ccc(Cl)cc1	-8	-14
COc1cc(C(=O)N2CCOC(COCc3ccccc3)C2)cc(OC)c1C (stereo not given)	19	16
COc1ccc2nc(-c3cc(C(F)(F)F)ccc3F)n(Cc3ccccc3)c(=O)c2c1	5	3
COCC(C)NC(=O)CCc1c(C)nn(-c2nc(C)c(C)c(=O)[nH]2)c1C (stereo not given)	11	5
CCc1nc2ccc(C(=O)N3CCN(S(=O)(=O)CC)CC3)cn2c1N(CC)Cc1cccc(Br)c1	15	9
CCc1ccc2c(c1)NC(=O)C2(C)Cc1cccc(C(=O)OC)c1 (stereo not given)	14	10
Cc1cc(C)c2sc(N(Cc3cccnc3)C(=O)Cc3ccccc3)nc2c1	-4	-2
CC(Oc1ccccc1)C(=O)N1CCN(c2nccc(-c3ccc(Oc4ccccc4)cc3)n2)CC1 (stereo not given)	12	7
COc1cccc(C(=O)N2CCN(Cc3ccc(-n4ccnc4)cc3)CC2)c1	8	8
CCOC(=O)CCNC(=O)N1CCn2cccc2C1c1ccc(F)cc1 (stereo not given)	13	9

Structures listed so far that contain a CF3 group (three):
SMILES	NPYLR7 agonist	NPYLR7 agonist max-min
COc1cc(CCNC(=O)CSc2nnc(C(F)(F)F)n2C)ccc1OC(F)F	-1	0
COc1cccc(C(=O)N(CCN2CCOCC2)Cc2nccn2Cc2ccc(C(F)(F)F)cc2)c1	-1	0
COc1ccc2nc(-c3cc(C(F)(F)F)ccc3F)n(Cc3ccccc3)c(=O)c2c1	5	3

(more compounds)
SMILES	NPYLR7 agonist	NPYLR7 agonist max-min
Cc1nn(C(C)C)c(C)c1N=O	-9	-17
NC(=O)c1cnc2n1CCN(C(=O)c1csc(Cc3ccccc3)n1)C2	5	3
Cc1ccc(-c2csc(N3C(=O)CC4CS(=O)(=O)CC43)n2)cc1C (stereo not given)	-3	-3
COCCOCC(=O)N1CCCN(c2nc3ccccc3nc2-c2ccccc2)CC1	4	1
Clc1cccc(C2c3cccn3CCCN2Cc2ccc3c(c2)OCCO3)c1 (stereo not given)	-3	0
COc1ccc(C2C(C(=O)OC(C)C)=C(C)NC3=C2C(=O)CC(c2ccccc2)C3)cc1OC (stereo not given)	6	4
COc1cccc(Cc2nsc(N(CCC(=O)NCCC(c3ccccc3)c3ccccc3)C(C)C)n2)c1	21	17
Cc1ccc(OCc2nc(CC(=O)N(C)CC3CCCCC3)cs2)cc1	7	6
Oc1c(C=NN2CCOCC2)cc2c3c1CCCN3CCC2	7	8
Cc1ccc(C)c(C(=O)CSc2nnc(-c3ccco3)n2C)c1	11	6
Cc1nc(-c2ccc(F)cc2)c(CC(=O)Nc2ccc(S(C)(=O)=O)cc2)s1	3	0
CCc1cnc(COc2ccc(OC3CCCCNC3=O)cc2)o1 (stereo not given)	-1	-3
Cc1nc(COC(=O)C2CCN(C(=O)N(C)C)CC2)no1	-1	-1
CCCc1cc2c(=O)c(-c3nc(C)cs3)c(N)oc2cc1OC	11	9
O=c1c2ccccc2[nH]c(=S)n1-c1ccc(-c2n[nH]c(=S)o2)cc1	3	6
Cc1cc2c(=O)n(Cc3ccco3)c(SCC(=O)NCc3ccco3)nc2s1	-8	-6
O=C(Nc1ccc(O)c(-c2nc3ccccc3o2)c1)c1ccccc1F	13	16
O=c1oc2ccccc2n1CCNCc1cccc2c1OCO2	5	5
Nc1nc2nc(Br)[nH]c2c(=O)[nH]1	-3	-4
CN1CCN(S(=O)(=O)c2cccc(C(=O)NC34CC5CC(CC(C5)C3)C4)c2)CC1	4	-1
Cc1nc(C(C)n2ccnc2-c2ccncc2)cs1 (stereo not given)	-2	-7
Cc1ccc(-n2c(SCc3ccc(C(=O)N4CCOCC4)cc3)nnc2-c2ccncc2)cc1	16	12
CN1C(=O)C=C(Nc2cccc(C(=O)O)c2)C1=O	2	2
Cc1cccc(N2CCN(S(=O)(=O)CCNC(=O)c3cccs3)CC2)c1	3	9

Screening data from PubChem BioAssay.
